Assay outcomes deposited in PubChem BioAssay by National Center for Advancing Translational Sciences (NCATS).
YjeE inh: YjeE (TsaE) inhibition, E. coli | P0AF67 | purified YjeE, fluorescence polarisation of a bound ADP probe | 71,000 tested, 0.05% active | Potency, µM; active = well fitted falling curve; inconclusive = weaker or top-dose-only fall, or a rising curve; inactive = flat or poorly fitted curve;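 further: top concentration of the series not given in the record; excess ADP was the control for the full effect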
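Purified YjeE (10 uM) with BODIPY Texas Red-labeled ADP probe (2 uM); compounds pin-transferred, 15 min at room temperature. Binding inhibition read as decreased fluorescence polarization; ADP titration as control.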
Bst PK mod: alters activity of Bacillus stearothermophilus pyruvate kinase; AID 361; partly purified Bacillus stearothermophilus pyruvate kinase, luminescence ATP production; ribose 5-phosphate activator present at AC10; Potency, µM; 51,000 tested, 1.2% active; in the data active means potency below about 11 µM; inconclusive means mostly about 12 µM to 25 µM; inactive means weaker than that;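 the screen sought inhibitors and activators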;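 further: potency means the concentration at half of the fitted maximal effect; scaled between full activation by ribose 5 phosphate and full inhibition by luteolin; about four in five hits inhibit and the cells do not say which; series up to 57 µM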
The depositor's hits bear a star; i = inactive; ? = inconclusive; . = no result given.

SMILES	YjeE inh	Bst PK mod
Nc1ccc(-c2ccc(Nc3cc(S(=O)(=O)O)c(N)c4c3C(=O)c3ccccc3C4=O)cc2)c(S(=O)(=O)O)c1	i	.
COC(=O)Nc1ccc(S(=O)(=O)N2CCCC(C(=O)Nc3cccc4c3OCCO4)C2)cc1 (configuration not stated)	i	>57
O=C(CSc1nnnn1-c1ccccc1)c1cc2ccccc2oc1=O	i	>57
CCOC(=O)N1CCN(c2c(NCCCN(CC)c3cccc(C)c3)c(=O)c2=O)CC1	i	>57
C(=Nc1ccc2c(c1)Cc1ccccc1-2)c1ccccn1	i	.
Cc1nc(=O)c(-c2ccccc2)c(C)n1CCCO	i	>57
N=c1c2c3c(sc2nc2n1CCC2)CCCC3	i	.
Cn1c(=O)cc(SCC(=O)Nc2ccc3c(c2)OCO3)c2ccccc21	i	>57
CCOCC(=O)O	i	.
O=C(O)c1ccccc1C(=O)Nc1ccccc1	i	>57
CCCCOc1ccc(C2CC(=O)NC2=O)cc1 (configuration not stated)	i	>57
CC(=O)c1c(C)n([O-])c2ccc(C)cc2[n+]1=O	i	>57
O=C(Nc1cccc(F)c1)N1CCC2(CC1)CCN(C(=O)c1ccco1)CC2	i	.
Cc1ccc(CN2CCC(C(=O)NCCC(C)C)CC2)o1	i	>57
Cc1ccc(C(=O)CC2(O)C(=O)N(C)c3ccc(Br)cc32)c(C)c1 (configuration not stated)	i	.
Cn1cc(C(F)(F)F)nc1-c1ccc(OC[C@@H](O)CNCCOc2ccc(O)c(C(N)=O)c2)cc1	i	.
CCCCC(CCC(=O)Nc1ccccc1C(=O)OCC)C(=O)O (configuration not stated)	i	>57
COc1ccc(Cc2nnc(SCC(=O)NC(C)c3ccccc3)o2)cc1 (configuration not stated)	i	.
COC(=O)CC(C(=O)Nc1cc(C(=O)OC)cc(C(=O)OC)c1)N1CCN(C)CC1 (configuration not stated)	i	>57
Cc1ccc(S(=O)(=O)N(CC(=O)N2CCCC2)C2CCCCC2)cc1	i	.
COc1cc2c(C(=O)Nc3ccc4c(c3)OCO4)cn(CC(C)C)c(=O)c2cc1OC	i	>57
Cn1c(-c2ccc3c(c2)OCO3)cnc1NC(=O)CCC(=O)NCCc1ccccc1	i	>57
O=C(NCCCn1ccnc1)c1ccco1	i	>57
Cc1cccc(NC2=NCC(=O)N2Cc2ccccc2)c1	i	>57
COc1cc(OC)nc(NC(=O)CS(=O)(=O)c2ccccc2)n1	i	>57

Going on with the list:
SMILES	YjeE inh	Bst PK mod
C[C@@]12C=CC(=O)C=C1CC[C@H]1[C@H]3CC[C@](O)(C(=O)CO)[C@]3(C)CC(=O)[C@@H]12	i	.
COc1ccc(CCNC(=O)c2c(O)c3cccc4c3n(c2=O)CC4)cc1OC	i	>57
CCc1[nH]nc2c1C1(CCN(C(=O)c3ccccc3)CC1)C(C#N)=C(N)O2	i	>57
CCCCCOC(=O)CSc1nc2c(c(=O)[nH]c(=O)n2C)n1CCc1ccccc1	i	>57
O=C(NCc1ccccc1)C1C(=O)N(Cc2ccccc2)C(=O)C1C1(O)CCCC1 (configuration not stated)	.	>26
Fc1ccc(-c2csc3nnc(SCc4cccnc4)n23)cc1	i	>57
CNC(=O)CSc1nnc(-c2ccc(S(=O)(=O)N3CCCC3)cc2)n1-c1cccc(C)c1C	i	>57
O=C(Nc1cccnc1)c1cc(-c2ccc3c(c2)OCO3)on1	i	.
CCc1cccc(NC(=O)CS(=O)Cc2nc(-c3ccc(C)cc3)oc2C)c1 (configuration not stated)	i	.
O=C(CSc1nnc(-c2ccccn2)n1Cc1ccccc1)N1CCCC1	i	>57
CC1=C(C(=O)Nc2ccccn2)C(c2ccc(F)cc2)n2ncnc2N1 (configuration not stated)	i	>57
COCCn1nnnc1C(c1ccccc1Cl)N1CCN(c2ccccc2OC)CC1 (configuration not stated)	i	>11
CCN1C(=O)c2cccc3c(S(=O)(=O)Nc4nc(C)cs4)ccc1c23	i	>11
Cc1ccc2[nH]c(C(=O)O)c(-c3ccccc3)c2c1	i	>57
O=C(CSC1=NCCN1)Nc1ccccc1	i	.
COC(=O)COc1ccc(NC(=O)C2CCCO2)cc1 (configuration not stated)	i	>57
CC1Oc2ccccc2N(CC(=O)c2cccc(Cl)c2)C1=O (configuration not stated)	i	>57
COC(=O)c1ccccc1NC(=O)NCc1ccc2c(c1)OCO2	i	>57
CCN(CC)CCN1C(=O)C(=O)/C(=C(/O)c2ccc(OC)c(OC)c2)C1c1ccccn1 (configuration not stated)	i	.
O=C(Nc1ccc(N2CCN(C(=O)c3ccco3)CC2)cc1)c1ccccc1F	i	>57
Nc1nc(-c2ccccc2)c(-c2ccccc2)c(-c2nc(N)nc(-c3ccccc3)c2-c2ccccc2)n1	i	.
Cc1nc(-c2cccc(S(=O)(=O)N3CC(C)OC(C)C3)c2)cs1 (configuration not stated)	i	>57
COCCNC(=O)c1cc2cc(Br)cc(OC)c2oc1=O	i	>57
O=C(c1cc(C(F)(F)F)cc(C(F)(F)F)c1)N1CCC2(CCCN(Cc3nccs3)C2)CC1	i	.
Cn1c(=O)c2c(O)cc(=O)[nH]c2n(-c2ccccc2)c1=O	i	>57

Remaining list, next part
SMILES	YjeE inh	Bst PK mod
O=C1CCC(=O)N1CN(Cc1ccco1)CN1C(=O)CCC1=O	.	>26
CCC(=O)N1CCN(c2ccccc2NC(=O)COc2ccccc2Cl)CC1	i	>57
CC(C)[N+](C)(CCOC(=O)C1c2ccccc2Oc2ccccc21)C(C)C	i	>11
CCn1nc(CC(=O)Nc2ccc(-n3cnnn3)c(C)c2)c2ccccc2c1=O	i	>57
COc1ccc2cc3cc(C(=O)NCCN4CCN(c5ccccc5F)CC4)oc3nc2c1	i	?
COc1ccc(-n2c(Cc3cccn3C)nnc2SCC(=O)Nc2ccc(F)cc2F)cc1	i	.
COc1ccc(N2CCN(C(CNC(=O)c3ccco3)c3cccnc3)CC2)cc1 (configuration not stated)	i	>57
COc1ccc(Cc2nnc3n2N=C(c2cc4ccccc4o2)CS3)cc1OC	i	>57
CC(=O)N1C(=O)C2(Nc3ccccc3N2)c2ccccc21	i	.
CCN(CCCNC(=O)CCCn1c(=O)[nH]c2ccccc2c1=O)c1cccc(C)c1	i	>57
CCN1CCC[C@@H](OC(=O)C(c2ccccc2)c2ccccc2)C1	i	.
CCOC(=O)C1=C(CC)Nc2ccccc2N=C1NC(=O)Cn1cnc2ccccc2c1=O	i	>57
c1cc2c3c(cccc3c1)NC1(CCCCCC1)N2	i	>57
Cc1nc2c(c(=O)n1Cc1ccco1)c1nc3ccccc3nc1n2Cc1ccccc1	i	>57
C[C@@]12C=CC(=O)C=C1CC[C@@H]1[C@@H]2[C@H](O)C[C@]2(C)[C@@H]1CC[C@]2(O)C(=O)CO	i	.
Cc1nn(-c2ccccc2)c2sc(C(=O)OC3CCOC3=O)cc12 (configuration not stated)	i	.
COc1cccc(N2CCN(C(=O)CN(c3ccc(C)cc3)S(=O)(=O)c3c(C)n[nH]c3C)CC2)c1	i	.
CCN(CC)C(=O)NC1CC2CCCC(C1)N2Cc1ccccc1 (configuration not stated)	i	>57
O=C(C1CCCCN1S(=O)(=O)c1ccc(F)cc1)N1CCN(c2ccccc2F)CC1 (configuration not stated)	i	.
CCn1nc(C(=O)NC2=NCCS2)c2ccccc2c1=O	i	>57
Cc1cc2nc(-c3ccc(NC(=O)c4cccnc4)cc3)oc2cc1C	i	.
O=C1N=C(c2ccccc2)C(c2ccccc2)N1 (configuration not stated)	i	.
C=CCOC(=O)COc1ccc2c(C)c(C)c(=O)oc2c1C	i	.
COc1ccc(NC(=O)CCSc2nnc(C)s2)cc1	i	.
COc1ccc2[nH]c(=O)c(CN(CCCN(C)C)C(=O)Nc3ccc(F)cc3)cc2c1	i	?

Next part:
SMILES	YjeE inh	Bst PK mod
CCCCSc1nnc2n(CCc3ccccc3)c(=O)c3c4c(sc3n12)COC(C)(C)C4	.	>26
CCOC(=O)C1=C(C)NC(=O)NC1c1ccco1 (configuration not stated)	i	>57
O=C(Nc1cccc(-c2cn3cccnc3n2)c1)c1ccc2c(c1)OCO2	i	.
Cc1ccc2nc(NC(=O)CNS(=O)(=O)c3ccc(Br)s3)sc2c1	i	>57
Cc1ccccc1Cn1ccc(NC(=O)c2cnn3cccnc23)n1	i	?
CC1Cc2ccccc2N1C(=O)c1cccnc1 (configuration not stated)	i	>57
O=S1(=O)C=CC(Sc2nc3ccccc3[nH]2)C1 (configuration not stated)	i	>57
O=C(CCC1N=C2c3ccccc3N=C(SCc3cccc(Cl)c3)N2C1=O)NCc1ccco1 (configuration not stated)	i	>57
C=C(C)CSc1nnc(-c2ccccc2)n1N	i	>57
O=C1C(c2ccc(F)cc2)N(Cc2ccc3c(c2)OCO3)C(=O)CN1C1CCCCC1 (configuration not stated)	i	>57
Cc1nnc(SCc2ccc(CC(=O)O)cc2)o1	i	>57
COc1ccc(-c2cc(-c3ccccc3O)[nH]n2)cc1OC	i	.
CCOC(=O)c1sc(SCC(=O)Nc2ccc(N(C)C)cc2)nc1N	i	i
O=C(Cn1cnc2c(oc3ccccc32)c1=O)N1CCCc2ccccc21	i	i
O=C(CSc1nnnn1-c1ccccc1)Nc1ccc(Cl)cn1	i	>57
COc1ccc2cc3cc(C(=O)Nc4ccc5c(c4)OCO5)oc3nc2c1	i	>57
CCOC(=O)CSc1nc(NC#N)nc(N(CC)CC)n1	.	>26
C=CCn1c(COc2cccc3ccc(C)nc23)nnc1SCC(N)=O	i	?
C[C@H]1CN(S(=O)(=O)c2cccc3cnccc23)CCN1	i	.
O=C1Cc2ccccc2C(c2ccccc2)N1 (configuration not stated)	i	.
COc1cccc(-c2cc(C(=O)N3CC4(C)CC3CC(C)(C)C4)no2)c1 (configuration not stated)	i	>57
CCOc1ccc(C(=O)Nc2ccc3c(c2)OCO3)cc1OCC	i	.
CCC(C)N1C(=O)CCC1C(=O)NCc1ccc2c(c1)OCO2 (configuration not stated)	i	.
CC(C)CNC(=O)C1CCCN(S(=O)(=O)c2ccc(-n3cnnn3)cc2)C1 (configuration not stated)	i	>57
N[C@@H](Cc1cc(CP(=O)(O)O)cc(-c2ccccc2Cl)c1)C(=O)O	i	.

Next part:
SMILES	YjeE inh	Bst PK mod
Nc1c(Br)cc(Br)cc1CNC1CCC(O)CC1 (configuration not stated)	i	.
CCOc1ccc(C(=O)NCCn2cc(SCC(=O)Nc3cc(C)on3)c3ccccc32)cc1	i	>57
COc1ccc2[nH]c(C)c(CN3CCCC(C)C3)c(=O)c2c1 (configuration not stated)	i	>57
NC(=O)c1nn(-c2ccccc2)nc1NC(=O)CN1CCCCC1	i	.
CCN1c2ccccc2NC2N=C(OC)C(c3ccccc3)C21 (configuration not stated)	i	.
N#C/C(Cn1c[n+](NC(=O)Nc2ccccc2)cn1)=N/O	i	>57
CC1CN(CC(O)COc2ccccc2C(C)(C)C)CC(C)O1 (configuration not stated)	i	>57
O=c1cc(CO)oc(CN2CCCC2)c1O	i	>57
Cc1cc(Nc2ccc(F)cc2C)n2ncnc2n1	i	.
CN(C)c1nc(-c2cccc(C#N)c2)nc2ccccc12	i	.
CCCCCC(=O)Nc1ccc(S(=O)(=O)Nc2nccnc2OC)cc1	i	>57
COc1ccc(-c2nnc(SCC(=O)c3cc(C)n(Cc4cccs4)c3C)o2)cc1	i	>57
c1csc(-c2nn3c(Cn4nnc5ccccc54)nnc3s2)c1	i	>57
CN(c1ccccc1C(=O)NCc1ccco1)S(C)(=O)=O	i	>57
CCN1CCn2c3c(c4cc(C)ccc42)CCCC31 (configuration not stated)	i	.
O=C(c1ccc2c(c1)OCO2)N1CCN(c2ccc(Cl)cc2)CC1	i	.
COc1ccccc1OCCC(=O)OCCN1C(=O)c2ccccc2C1=O	i	>57
COc1cc(CNc2ccc3[nH]c(=O)[nH]c3c2)cc(Cl)c1OCC(=O)NC(C)(C)C	i	.
COc1ccc(/C=C(\C#N)C(N)=O)c(OC)c1	i	.
O=C(CSc1nc(-c2ccc(F)cc2)cs1)N1CCN(C(=O)c2ccco2)CC1	i	.
CCOc1ccc(CC(=O)C2C(=O)CCCC2=O)cc1OCC	i	>57
O=C(CC(c1ccc(F)cc1)c1ccco1)N1CCCC1 (configuration not stated)	.	>26
O=C(COC(=O)c1cccnc1)Nc1ccc(F)cc1	i	>57

A draw from above in order of formula weight, ascending:
SMILES	YjeE inh	Bst PK mod
O=c1cc(CO)oc(CN2CCCC2)c1O	i	>57
COc1ccc(/C=C(\C#N)C(N)=O)c(OC)c1	i	.
CCN1CCn2c3c(c4cc(C)ccc42)CCCC31 (configuration not stated)	i	.
O=C(COC(=O)c1cccnc1)Nc1ccc(F)cc1	i	>57
N#C/C(Cn1c[n+](NC(=O)Nc2ccccc2)cn1)=N/O	i	>57
COc1ccc2[nH]c(C)c(CN3CCCC(C)C3)c(=O)c2c1 (configuration not stated)	i	>57
CCN1c2ccccc2NC2N=C(OC)C(c3ccccc3)C21 (configuration not stated)	i	.
CCOc1ccc(CC(=O)C2C(=O)CCCC2=O)cc1OCC	i	>57
CC1CN(CC(O)COc2ccccc2C(C)(C)C)CC(C)O1 (configuration not stated)	i	>57
c1csc(-c2nn3c(Cn4nnc5ccccc54)nnc3s2)c1	i	>57
O=C(c1ccc2c(c1)OCO2)N1CCN(c2ccc(Cl)cc2)CC1	i	.
COc1ccccc1OCCC(=O)OCCN1C(=O)c2ccccc2C1=O	i	>57
Nc1c(Br)cc(Br)cc1CNC1CCC(O)CC1 (configuration not stated)	i	.
COc1ccc(-c2nnc(SCC(=O)c3cc(C)n(Cc4cccs4)c3C)o2)cc1	i	>57
CCOc1ccc(C(=O)NCCn2cc(SCC(=O)Nc3cc(C)on3)c3ccccc32)cc1	i	>57

An excerpt (hit frequency here may not be typical).
